From PubChem
gsp antag = antagonizes gsp, the McCune-Albright syndrome mutation. gsp-mutant cells, cAMP HTRF, 30 min; control for the full effect not named in the record. 340,000 compounds, 0.4% hits. AID 624288. Potency, µM (highest dose often 76.9 µM), for the others: at the top dose activity change, negative = inhibition, usual class: inhibitors; active = falling curve of any shape with a large fitted effect; inconclusive = falling curve, mostly with a smaller effect; inactive = flat or rising curve; cell line not stated here;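 note: intracellular cAMP measured with PDE inhibitor Ro 20-1724 present during compound exposure; potency is the fitted concentration of half-maximal effect; % is set by controls: 0 for no effect and ±100 for the full control effect; nearly all actives have a fitted effect of over 65% in size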
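Measurement of cellular cAMP by homogeneous time-resolved fluorescence following a 30 min compound exposure at 37C. The PDE inhibitor […] was present throughout; the assay buffer was DPBS with 0.05% BSA and 0.005% Tween 20.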
ClpP mod = qHTS Assay for Activators of ClpP; purified B. subtilis ClpP, FRET peptide cleavage, 20 min; Potency, µM (titrated, usually from 57.5 µM), for inactives: at the top dose activity change, negative = active; 340,000 compounds, 1.9% hits; AID 651965, 2013; active = well fitted falling curve with a large enough effect; inconclusive = small, poorly fitted or top-dose-only effect; inactive = no such curve, though single readings can be large or run the other way; note: potency is the fitted concentration of half-maximal effect; the source files actives as falling curves though it sought activators and does not explain the sign; nearly all actives have a fitted effect of over 65% in size; many hits overshoot -100%
Target sequence (P80244 whole entry, looked up): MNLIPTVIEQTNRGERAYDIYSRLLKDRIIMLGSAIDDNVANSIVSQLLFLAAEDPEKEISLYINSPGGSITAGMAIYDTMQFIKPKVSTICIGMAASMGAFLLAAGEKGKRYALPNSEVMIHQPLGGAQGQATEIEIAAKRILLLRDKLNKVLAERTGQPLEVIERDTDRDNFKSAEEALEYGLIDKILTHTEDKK
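ClpP 10 microg/mL final, pH 8 Tris/KCl buffer with BSA, glycerol, Tween-20; compound pinned in; FRET-FV substrate; RT 20 min; Ex320/Em430; ΔFRET vs ADEP 5.8 microM, DMSO, no enzyme.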
gsp agonist = gsp mutant agonism. gsp mutant cells, cAMP HTRF, 30 min; control for the full effect not named in the record. 340,000 compounds, 0.13% hits. Potency, µM (doses to about 76.9 µM), for inactives: at the highest dose activation (cAMP increase), usual class: activators; active = well fitted activation curve with a large enough effect; inconclusive = small, poorly fitted or top-dose-only effect, or another doubt; inactive = no such curve, though single readings can be large or run the other way; cell line not stated here;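 note: phosphodiesterase inhibitor Ro 20-1724 added with compounds to block cAMP breakdown; potency is the fitted concentration of half-maximal effect; nearly all actives have a fitted effect of over 60% in size; about a fifth of the inactives were tested at one dose only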
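Cells stably selected in G418 were plated at 2000/well, grown 16-24 hr, then given compounds in DMSO with the PDE inhibitor […] (300 uM solution added) for 30 min at 37C; cAMP was read by HTRF.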
Sfp inh = Sfp phosphopantetheinyl transferase inhibition; Potency, µM, without a hit: max response, negative = inhibition, hits mostly inhibitors; Q9F4F7; 310,000 compounds, 3.5% hits; Biochemical Sfp PPTase activity, qHTS; active = well fitted inhibition curve with a large enough effect; inconclusive = small, poorly fitted or top-dose-only effect, or another doubt; inactive = no such curve, though single readings can be large or run the other way;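 note: the enzyme is Sfp with the accession as filed and its product quenches rhodamine fluorescence; potency is the fitted concentration of half-maximal effect; 0% = enzyme reaction without inhibitor and -100% = no enzyme wells; top concentration of the series not given in the record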
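Reaction rates are the 30-min fluorescence difference (ex 525, em 598 nm) in wells containing 15 nM Sfp, 5 uM rhodamine-CoA and 12.5 uM BHQ-2-YbbR at pH 7.6 with 10 mM MgCl2.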
TRPV1 potentiator = enhances activation of the human vanilloid receptor TRPV1 | Q8NER1 | TRPV1-expressing cells, Fluo-8 calcium influx, capsaicin EC20 potentiation; host cell line not named in the record; control for the full effect not named in the record | potentiation, % at 8.33 µM | 320,000 compounds, 0.02% hits; active means potentiation above 80%; inconclusive means 30% to 80%; inactive means below 30%; note: 0% is about no effect
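TRPV1-expressing cells were cultured overnight at 35.5C and loaded with Fluo-8 calcium dye for 40 to 90 min at room temperature. After a 10 s baseline, compound was added and calcium influx was read kinetically for 3 min (ex 480/em 520 nm).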
Menin MLL FP FL = inhibitors of human menin-MLL interaction, wild-type MLL peptide; Fluorescence polarization, fluorescein-MLL peptide displacement from menin; FP activity change, % at 61.4 µM; 290,000 tested, under 10 active; inconclusive = falling polarisation curve, or a change in total fluorescence; inactive = total fluorescence flat and polarisation flat or rising; no compound was filed as active; the % refers to the polarisation; negative = inhibition;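 note: % of control where 0% means no effect; inhibitors lower the polarisation; unlabelled MLL peptide was the positive control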
TRPML1 blocker = inhibitors of human TRPML1 channel. 390,000 compounds, 0.02% hits. AID 624415. TRPML1-inducible cells, Ca2+ dye fluorescence, FDSS; hits give low values; inhibition of EC80 agonist-evoked calcium signal. activity change, negative = inhibition, % (concentration not given with the values); in the data active means activity change below about -50%; inconclusive means about -30% to -50%; inactive means above about -30%;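 note: stimulus is agonist 54-4 at its EC80 concentration; % is set by controls: 0 for no effect and ±100 for the full control effect; the text of the record puts the active cut at -80%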
Target sequence (Q9GZU1 whole entry, looked up): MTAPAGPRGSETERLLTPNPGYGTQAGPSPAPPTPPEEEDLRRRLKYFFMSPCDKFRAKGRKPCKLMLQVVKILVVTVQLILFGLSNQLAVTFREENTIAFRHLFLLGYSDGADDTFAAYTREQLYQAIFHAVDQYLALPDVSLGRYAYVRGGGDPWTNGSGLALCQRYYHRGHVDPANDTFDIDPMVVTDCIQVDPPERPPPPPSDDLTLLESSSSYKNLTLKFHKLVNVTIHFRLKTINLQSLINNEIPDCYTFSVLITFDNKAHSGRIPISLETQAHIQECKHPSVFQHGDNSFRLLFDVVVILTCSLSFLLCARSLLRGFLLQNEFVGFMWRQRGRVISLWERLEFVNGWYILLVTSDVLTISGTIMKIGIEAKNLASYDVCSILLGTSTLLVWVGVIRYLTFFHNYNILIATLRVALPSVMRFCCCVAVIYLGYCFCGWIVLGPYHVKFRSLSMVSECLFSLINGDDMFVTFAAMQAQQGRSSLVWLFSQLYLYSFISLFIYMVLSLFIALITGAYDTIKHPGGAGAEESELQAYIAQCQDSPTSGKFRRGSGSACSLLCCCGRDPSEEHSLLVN
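Tet-induced TRPML1-DL cells loaded with Ca8 no-wash calcium dye were read kinetically on FDSS. Compound addition was followed by EC80 agonist 54-4 (4 uM final); inhibition was read over 110 s.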
Starred values were filed as active, the others as inactive; ? = inconclusive; nt = not tested or not shown; & = joins results of further samples; [ ] = remark or other dose.

SMILES	gsp antag	ClpP mod	gsp agonist	Sfp inh	TRPV1 potentiator	Menin MLL FP FL	TRPML1 blocker
COc1ccc(OC)c(CNC(=O)c2ccc(C)c(NC(=O)C3=C(C)OCCS3)c2)c1	5.7%	-0.6%	1.6%	17.5%	-2.8	nt	-8.6
Cc1ccc(OCc2ccc(C(=O)Nc3nc4ccccc4n3Cc3ccccc3)o2)c([N+](=O)[O-])c1	0.9%	0.8%	-16.4%	?	13.3	-0.6	3.3
COc1ccc(C2C(C(=O)N3CCCCC3)CC(=O)N2c2ccc(OC)cc2)cc1 (stereo not drawn)	0.3%	-0.6%	-0.3%	-8.6%	3.3	0.7	0.9
Cc1ccc(S(=O)(=O)N(CC(=O)NCC2CCCO2)Cc2ccc(F)cc2)cc1 (stereo not drawn)	2.8%	nt	-16.6%[15.4 µM]	-4.5%	-5.5	-6.0	-1.6
C=C1C(=O)O[C@@H]2[C@H]1[C@@H](OC(=O)/C(C)=C/C)C/C(C)=C\C(=O)/C=C(\C)[C@@H]2O	7.0%	0.3%	5.9%	-18.5%	?	-1.2	-10.8
CCOc1ccc(S(=O)(=O)N2CCCC(C(=O)Nc3ccccc3)C2)cc1 (stereo not drawn)	-18.5%	-0.8%	0.1%[15.4 µM]	21.1%	-0.5	1.6	-7.3
Cc1ccc(CN2CCC[C@]3(N[C@H](c4ccccc4)[C@@H]4C(=O)N(Cc5ccccc5)C(=O)[C@@H]43)C2=O)cc1	nt	-0.3%	-33.3%[inhibitor]	nt	nt	nt	-20.0
O=C(NC1CCCCCC1)C1CCC(=O)N(Cc2ccccc2F)C1 (stereo not drawn)	4.4%	-1.9%	-14.0%[15.4 µM]	12.7%	7.3	-2.5	1.3
COC(=O)c1ccsc1NC(=O)C1=COCCO1	-14.0%	-1.6%	29.7%	-9.0%	nt	0.1	10.5
O=C(CCl)N1CCN(S(=O)(=O)c2ccc3c(c2)OCCCO3)CC1	-20.5%	-0.2%	-20.5%	nt	5.8	nt	-2.3
CC(C)NC(=O)c1cnc(N2CCN(c3ccccn3)CC2)c2ccccc12	-23.6%	-4.3%	?	-1.0%	11.6	-4.6	0.2
CCOC(=O)c1csc(-n2nc(C)cc2C(F)(F)F)n1	-5.1%	nt	12.6%	8.6%	-15.0	-0.2	-1.2
Cc1ccc(CCN2CC(C(=O)NCCN(C)C)CC2=O)cc1 (stereo not drawn)	9.3%	nt	15.7%	0.8%	12.1	-0.6	28.2
O=C(C[n+]1ccccc1)N1CCCc2ccccc21	10.9%	-1.0%	-6.7%	3.5%	21.9	2.2	-11.7
S=C(Nc1ccc(Cl)c(Cl)c1)NC1CCN(Cc2ccccc2)CC1	-2.7%	-0.6%	-22.4%	-4.9%	-6.4	1.2	-13.3
CC(CNc1ccc(Cl)cc1)(CNc1ccc(Cl)cc1)[N+](=O)[O-]	-4.8%	nt	-69.0%[inhibitor]	nt	nt	nt	-5.0
CC1(C)CC(CCNS(=O)(=O)c2ccccc2)(c2ccccc2)CCO1 (stereo not drawn)	3.6%	-1.1%	5.6%	10.4%	-3.8	2.5	5.4
COc1cc(OC)cc(N(C(=O)c2ccco2)C(C(=O)NC2CCCC2)c2ccc(N(C)C)cc2)c1 (stereo not drawn)	-16.3%	5.0%	-5.0%	5.6%	-16.2	-1.3	-20.3
Cc1[nH]c2ccccc2c1/C=N/NC(=S)NCc1ccccc1	-14.9%	0.0%	21.3%	14.7%	0.0	6.9	12.0
Cc1nn(-c2ccccc2)c(Cl)c1/C=N/NC(=O)c1ccc(CNc2ccccc2)o1	3.1%	1.4%	-4.8%	-0.9%	5.4	0.5	-4.2
Cc1ccc(/C=C/C(=O)N2CCN(S(=O)(=O)c3cccs3)CC2)o1	-11.0%	-4.4%	-28.6%	14.1µM*	-15.5	-0.3	-5.4
Cc1nnc(SCC(=O)Nc2ccccc2N2CCOCC2)s1	-2.3%	0.7%	-31.4%[inhibitor]	10.4%	-3.0	4.6	6.9
CCC(=O)N1CCc2cc(S(=O)(=O)N3CCN(c4cc(Cl)ccc4C)CC3)ccc21	-0.6%	2.1%	29.8%	-3.7%	12.0	nt	11.0
CCSC(=O)N(CC)CC(=O)Nc1c(CC)cccc1CC	3.8%	-2.2%	?	6.9%	-11.7	3.3	-7.7
COC(=O)[C@H](Cc1ccccc1)NC(=O)Nc1ccc(S(N)(=O)=O)cc1	-1.9%	0.8%	-0.7%	14.8%	-2.9	1.8	-6.5
COc1cccc(C(=O)OCC(=O)N2CCc3ccccc32)c1OC	-6.7%	nt	-2.0%[15.4 µM]	nt	?	nt	7.7
CN(CC(=O)Nc1ccc(F)c(F)c1F)C(=O)c1ccc2c(c1)NC(=O)CS2	-25.0%	-2.6%	4.7%	nt	27.3	nt	-2.6
O=C(NCCOc1ccccc1)c1cccc2c1C(=O)c1ccc(Cl)cc1S2(=O)=O	-16.1%	0.8%	-41.5%[inhibitor]	nt	10.9	nt	16.2
CC(=O)Nc1ccc(S(=O)(=O)NC2(C(F)(F)F)N=C(c3ccccc3)NC2=O)cc1 (stereo not drawn)	5.1%	-1.0%	5.7%	5.1%	-21.6	12.4	-8.1
CCN(C(=O)COc1ccc(C(C)=O)cc1)c1cccc2ccccc12	-6.5%	?	-17.6%[15.4 µM]	nt	nt	nt	-2.1
CCCCOc1ccc(-c2nc(SCC(N)=O)n[nH]2)cc1	-10.6%	-1.3%	-0.1%	10.3%	-24.8	-1.3	-25.2
COC(=O)c1ccc(CC(=O)c2ccc(O)cc2O)o1	?	0.7%	3.6%	-29.9%	4.3	?	22.7
CCC(C(=O)O/N=C(\N)c1ccc(C)cc1)c1ccccc1 (stereo not drawn)	3.4%	-1.6%	-41.9%[inhibitor]	8.9%	-8.1	0.3	1.2
CC(=O)Nc1ccc(C(=O)COC(=O)CCS(=O)(=O)c2ccccc2)cc1	-0.4%	-4.2%	-69.3%	nt	-7.0	nt	-4.6
CC(=O)OC(COc1ccccc1)Cn1cnc2cc(C)c(C)cc21 (stereo not drawn)	-8.3%	-1.4%&-3.1%	?	16.5%	-12.6	-1.1	-23.0&6.5
CC1CC(C)(C)OC(C[N+]2(C)CCCCC2)O1 (stereo not drawn)	1.5%	nt	16.4%[15.4 µM]	18.9%	1.7	1.6	11.0
CCOc1ccc(OCC)c(NC(=O)CN2CCN(c3cccc(C)c3)C(C)C2)c1 (stereo not drawn)	-12.2%	-1.1%	5.9%[15.4 µM]	?	-11.6	-1.8	-21.0
Cc1nc2ccc(NC(=O)C3=NN(C)C(=O)CC3)cc2s1	2.2%	0.7%	-8.6%	nt	nt	nt	6.8
CCOC(=O)CNC(=O)c1ccc(OCC(F)(F)F)cc1	4.9%	-0.3%	-134.8%[inhibitor]	16.8%	10.5	2.9	1.5
COc1ccc2[nH]c(=O)c(-c3nnn(-c4ccc(Cl)nc4)n3)cc2c1	-17.3%	-5.8%	-21.3%	nt	nt	nt	11.4
COC(=O)[C@H](Cc1ccccc1)[C@@H](C)OS(N)(=O)=O	9.9%	0.8%	2.4%	8.0%	-10.3	4.3	-14.5
COc1ccc(C2CC(=O)Oc3c2c(=O)n(C)c2ccccc32)c(OC)c1OC (stereo not drawn)	-7.4%	3.7%&4.4%	-10.7%	5.7%	1.3	-0.5	-4.7&-15.3
CSc1nsc2nc(=O)c(/C=C3\C(C)=Nc4ccc(C)cc43)c(N)n12	-29.2%	0.3%	?	14.3%	-7.9	?	0.6
O=C1C2C3C=CC(C3)C2C(=O)N1c1ccc2ccccc2n1 (stereo not drawn)	16.0%	-1.0%	-11.8%	8.8%	-24.2	1.3	-10.8
COc1ccccc1NC(NC(=O)c1ccccn1)C(Cl)(Cl)Cl (stereo not drawn)	-7.7%	?	0.9%	-0.9%	-1.9	5.0	-12.1
Cc1ccc(C)c(NC(=O)COC(=O)c2cc3ccccc3oc2=O)c1	11.9%	?	-24.1%	nt	14.7	nt	-4.8
CCC(=O)N(Cc1cc2ccccc2[nH]c1=O)C(C)C	-0.2%	-20.0%	-65.7%[inhibitor]	11.2%	8.7	3.0	78.7
COc1ccc(C2=NS(=O)(=O)N(C)C(C(=O)NCc3cccs3)=C2)cc1OC	-7.6%	1.2%	-17.3%	1.3%	-3.7	-4.2	-13.7
COc1ccc(NC(=S)/N=C(\N)Nc2nc(C)c3ccc(C)cc3n2)cc1	-18.0%	-1.5%	-27.6%	5.3%	10.4	18.7	-3.5
CCc1c(C)nc2c(-c3ccccc3)c(C)nn2c1Nc1ccc(NC(C)=O)cc1	?	nt	-9.6%	1.2%	-25.3	1.9	5.5
COc1ccc(C(=O)OC(C)C(=O)NC2CCCC2)cc1S(=O)(=O)N1CCOCC1 (stereo not drawn)	11.1%	-0.6%	?	nt	-10.1	nt	-10.3
O=C(CN1C(=O)NC(c2ccccc2)(c2ccccc2)C1=O)N1CCN(c2ccccc2F)CC1	3.8%	1.7%	8.2%	nt	4.3	nt	-9.6
COc1ccc(CC(=O)NCCc2ccc(S(N)(=O)=O)cc2)cc1	6.4%	-2.9%	-17.6%	22.7%	8.7	0.7	-3.8
C/C(=N\Nc1ccccc1)c1cc2ccccc2oc1=O	-4.7%	nt	-6.7%[15.4 µM]	-7.8%	-11.0	2.4	10.0
NC(=S)N/N=C/c1ccc(-c2ccc(Cl)c(Cl)c2)o1	-4.6%	?	?	44.7µM*	8.2	22.4	11.6
COc1cccc(NC(=O)CCSc2nnc3scc(-c4ccccc4)n23)c1	-24.4%	-3.8%	?	-4.4%	15.3	-3.0	6.0
O=C(CC(C(=O)N1CCc2ccccc21)n1ccnc1)NCC1CCCO1 (stereo not drawn)	6.8%	-1.5%	24.0%	-3.0%	?	-1.2	8.7
CCn1c(SCC(=O)N2CCN(c3ccccc3)CC2)nc2c([nH]c3ccccc32)c1=O	16.7%	-10.6%	12.3%[15.4 µM]	24.5%	10.1	nt	-3.4
